Screening results from PubChem.
Menin-MLL FL inh = displaces fluorescein MLL peptide from human menin. FP activity change, % at 61.4 µM. 290,000 tested, under 10 active. Fluorescence polarization, fluorescein-MLL peptide displacement from menin; inconclusive = falling polarisation curve, or a change in total fluorescence; inactive = total fluorescence flat and polarisation flat or rising; no compound was filed as active; the % refers to the polarisation; negative = inhibition;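 note: % of control where 0% means no effect; inhibitors lower the polarisation; unlabelled MLL peptide was the positive control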
ClpP mod = qHTS Assay for Activators of ClpP | purified B. subtilis ClpP, FRET peptide cleavage, 20 min | ATP-dependent Clp protease proteolytic subunit (Bacillus subtilis (strain 168)), P80244 | Potency, µM (doses to about 57.5 µM), for the others: at the top dose activity change, negative = active | 340,000 tested, 1.9% active; active = well fitted falling curve with a large enough effect; inconclusive = small, poorly fitted or top-dose-only effect; inactive = no such curve, though single readings can be large or run the other way; note: potency is the fitted concentration of half-maximal effect; the source files actives as falling curves though it sought activators and does not explain the sign; nearly all actives have a fitted effect of over 65% in size; many hits overshoot -100%
Target sequence (P80244 whole entry, looked up): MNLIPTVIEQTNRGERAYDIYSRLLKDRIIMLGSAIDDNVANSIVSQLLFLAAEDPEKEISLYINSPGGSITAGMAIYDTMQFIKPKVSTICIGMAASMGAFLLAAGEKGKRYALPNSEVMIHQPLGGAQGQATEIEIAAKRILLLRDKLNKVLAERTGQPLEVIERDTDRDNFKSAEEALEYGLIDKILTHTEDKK
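Purified B. subtilis ClpP, 10 microg/mL final in Tris/HCl pH8 with KCl, BSA, glycerol and Tween-20, cleaved an Abz/nitrotyrosine-quenched decapeptide. Fluorescence (ex 320, em 430) was read at 0 and 20 min at room temperature. Delta was normalized to 5.8 microM ADEP and DMSO/no-enzyme controls.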
Sfp inh = blocks B. subtilis Sfp PPTase activity; Q9F4F7; Biochemical Sfp PPTase activity, qHTS; Potency, µM, for inactives: max response, negative = inhibition, actives largely listed as inhibitors; 310,000 tested, 3.5% active; active = well fitted inhibition curve with a large enough effect; inconclusive = small, poorly fitted or top-dose-only effect, or another doubt; inactive = no such curve, though single readings can be large or run the other way;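 note: the enzyme is Sfp with the accession as filed and its product quenches rhodamine fluorescence; potency is the fitted concentration of half-maximal effect; 0% = enzyme reaction without inhibitor and -100% = no enzyme wells; top concentration of the series not given in the record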
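With Hepes-Na pH 7.6 buffer containing 10 mM MgCl2, Sfp (15 nM) modified BHQ-2-YbbR (12.5 uM) using rhodamine-CoA (5 uM). Two reads 30 minutes apart at 525/598 nm yielded each well's rate.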
TRPML1 blocker = inhibitors of human TRPML1 channel | Q9GZU1 | TRPML1-inducible cells, Ca2+ dye fluorescence, FDSS; stronger effect = lower value; inhibition of EC80 agonist-evoked calcium signal | activity change, negative = inhibition, % (test concentration not listed) | 390,000 tested, 0.02% active; in the data active means activity change below about -50%; inconclusive means about -30% to -50%; inactive means above about -30%;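 note: stimulus is agonist 54-4 at its EC80 concentration; % is set by controls: 0 for no effect and ±100 for the full control effect; compound concentration not given in the record; the text of the record puts the active cut at -80%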
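TRPML1-DL cells, Tet-induced overnight (~16 h, 37 °C) at 1,500 cells/well, were loaded with Ca8 no-wash dye plus quencher for 45-90 min at room temperature. Compounds were pinned during FDSS kinetic reading; agonist 54-4 at EC80 (4 uM final) then added.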
PINK1 modulator = PINK1 expression modulation; PINK1 immunofluorescence, high-content cytometry, 24 h; Potency, µM (highest dose often 76.6 µM), inactives show top-dose activation (PINK1 increase), most hits filed as activators; 410,000 tested, 0.2% active; active = well fitted activation curve with a large enough effect; inconclusive = small, poorly fitted or top-dose-only effect; inactive = flat fitted curve, though single readings scatter; cell line not stated here;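 note: potency is the fitted concentration of half-maximal effect; % of control where 0% means no effect; nearly all actives have a fitted effect of over 65% in size; a mitochondrial uncoupler was the plate control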
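Fluorescence from anti-PINK1 antibody, together with nuclear and cell stains, was scanned on a laser-scanning cytometer. Before staining, stable-line cells were incubated 24 hours with compounds at 5 concentrations; primary antibody 12 h at 10 degrees C.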
TRPML1 ag = human mucolipin-1 channel agonism; Q9GZU1; TRPML1-expressing cells, Ca2+ dye fluorescence, FDSS; host cell line not named in the record; reference of the full effect not given here; activation, % (concentration not given with the values); 410,000 tested, 0.12% active; in the data active = activation above about 50%; inconclusive = about 30% to 50%; inactive = below about 30%; note: 0% is about no effect; the text of the record puts the active cut at 80%
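Cells: TRPML1-DL, 1X Tet inducer, ~16 h at 37 degrees C/5% CO2. Dye: ABD Ca8 no-wash + quencher, 45-90 min RT. Read: 10 s baseline, compound add, 110 s agonist phase; 54-4 EC80 (4uM final), 110 s antagonist phase.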
TRPV1 potentiator = potentiators of human vanilloid receptor 1 (TRPV1); Q8NER1; TRPV1-expressing cells, Fluo-8 calcium influx, capsaicin EC20 potentiation; host cell line not named in the record; control for the full effect not named in the record; potentiation, % at 8.33 µM; 320,000 tested, 0.02% active; AID 540277; active means potentiation above 80%; inconclusive means 30% to 80%; inactive means below 30%; note: 0% is about no effect
Target sequence (Q8NER1 whole entry, looked up): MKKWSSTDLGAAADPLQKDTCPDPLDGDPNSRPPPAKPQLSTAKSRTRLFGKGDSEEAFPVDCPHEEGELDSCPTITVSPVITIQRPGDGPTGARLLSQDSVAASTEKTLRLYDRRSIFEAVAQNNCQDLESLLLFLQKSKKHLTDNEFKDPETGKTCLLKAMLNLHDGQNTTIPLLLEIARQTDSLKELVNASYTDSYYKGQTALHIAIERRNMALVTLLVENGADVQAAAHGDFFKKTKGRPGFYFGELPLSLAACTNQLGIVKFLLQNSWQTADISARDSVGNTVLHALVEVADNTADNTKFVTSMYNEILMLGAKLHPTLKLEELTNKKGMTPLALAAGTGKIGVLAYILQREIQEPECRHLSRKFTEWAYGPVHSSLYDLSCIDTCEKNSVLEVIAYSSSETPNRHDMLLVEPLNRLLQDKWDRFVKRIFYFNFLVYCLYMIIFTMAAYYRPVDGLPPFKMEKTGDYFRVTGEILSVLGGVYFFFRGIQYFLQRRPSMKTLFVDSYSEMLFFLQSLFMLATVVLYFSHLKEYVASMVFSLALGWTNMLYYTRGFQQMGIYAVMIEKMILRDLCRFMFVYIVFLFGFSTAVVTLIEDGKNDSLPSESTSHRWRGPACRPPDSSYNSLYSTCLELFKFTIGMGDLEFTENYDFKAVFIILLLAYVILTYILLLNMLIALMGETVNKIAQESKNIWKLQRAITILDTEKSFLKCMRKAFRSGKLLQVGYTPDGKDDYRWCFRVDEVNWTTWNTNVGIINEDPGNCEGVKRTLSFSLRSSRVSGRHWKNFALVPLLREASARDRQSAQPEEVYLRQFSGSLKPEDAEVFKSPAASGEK
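Fluo-8 calcium influx in TRPV1-expressing cells, kinetic read (ex 480/em 520 nm). Compound added and read 3 min for agonist activity, followed by capsaicin at EC20 final and 2 min further read for enhancement.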
Starred values were filed as active, the others as inactive; ? = inconclusive; . = no result given; [ ] = another dose, or the depositor's remark.

Order of results – Menin-MLL FL inh	ClpP mod	Sfp inh	TRPML1 blocker	PINK1 modulator	TRPML1 ag	TRPV1 potentiator
CCOC(=O)C1=C(C)N(c2ccccc2)C(=O)C1CC(=O)O (configuration not stated)
  2.5	5.6%	11%	-14	0.4%	-0.7	-5
Nc1c(C(=O)CSc2nc(-c3ccccc3)cs2)c(=O)[nH]c(=O)n1C1CC1
  .	-2.7%	.	80	13%	-0.4	2
Cc1ccc(NC(=S)N(C)Cc2cn(C)c3ccccc23)cc1
  7.1	-3.9%	0%	48	2.9%	0.2	-11
O=C1CC(C(=O)N2CCN(c3ccccc3Cl)CC2)CN1Cc1ccccc1 (configuration not stated)
  .	-3.0%	.	28	-0.6%	0.0	-16
O=C(CC(c1ccccc1)c1cc(Br)ccc1O)NCCCN1CCOCC1 (configuration not stated)
  2.0	0.6%	1%	-6	-0.3%	0.8	-10
CC(=O)c1ccc(NS(=O)(=O)c2ccc3[nH]c4c(c3c2)CCCC4)cc1
  .	-2.4%	.	42	8.6%	4.7	.
CC(=O)NC(C)(c1ccccc1)c1nc(-c2ccc(N(C)C)cc2)cs1 (configuration not stated)
  .	-0.8%	.	.	0.4%	-0.9	.
COc1ccc(NS(=O)(=O)c2cc(NC(=O)[C@@H](NC(N)=O)C(C)C)ccc2C)cc1
  7.3	-1.0%	18%	-7	2.8%	0.1	-20
Cc1cccc(NCc2ccccc2OCc2ccccc2F)c1
  1.4	-1.8%	-5%	-9	?	0.4	1
COc1ccc(OC)c(-c2c(C#N)c(N)nc3c2c(=O)nc2sccn23)c1
  0.7	.	25%	-3	-0.4%	-0.1	-2
C=CCNc1nc(C)c(C(C)=O)cc1C#N
  1.3	-9.2%	16%	3	0.1%	-0.2	-2
CC(=NNC(=O)c1ccncc1)c1cccc(Br)c1
  .	.	.	-1	6.2%	-0.9	.
COCCNC(=O)c1cc(-c2ccc(Cl)c(Cl)c2)on1
  1.0	-2.6%	-3%	37	2.2%	-0.2	-15
CCCNC(=O)C1(C)CCN(C(=O)c2cc(C)n(C(C)(C)C)n2)C1 (configuration not stated)
  .	0.2%	.	-4	0.0%	-0.1	.
Cc1ccc(OCC(=O)Nc2cc(S(=O)(=O)N3CCCCC3)ccc2C)c([N+](=O)[O-])n1
  2.3	0.6%	-1%	3	2.8%	1.0	-4
Cc1nn(-c2ccccc2)c(-n2cccc2)c1C(=O)NCCCN1CCN(c2ccccc2F)CC1
  .	0.8%	.	30	0.1%	0.9	.
Cc1cccc(CS(=O)(=O)Cc2ccc(C(=O)NC3CCCCCC3)o2)c1
  .	-1.6%	13%	-24	-0.4%	2.9	4
O=C(CCNC(=O)c1ccccc1Cl)Nc1cc(C(F)(F)F)ccc1Cl
  -1.2	2.1%	4%	1	1.8%	0.5	7
Cc1cc(OCC(=O)NNC(=O)CCc2ccccc2)ccc1Br
  -6.8	.	23%	21	1.9%	-0.2	3
O=C(O)CN1C(=O)SC(Nc2ccc(Cl)cc2)C1=O (configuration not stated)
  1.9	-1.0%	12%	-13	-0.1%	-0.7	-8
CCSCCNC(=O)c1cncc(Br)c1
  -4.0	0.6%	-4%	12	-0.5%	-1.0	3
c1ccc(N2CCN(Cc3ccsc3)CC2)nc1
  -1.1	-5.7%	-13%	17	-2.7%	-0.8	3
COc1cccc(C(=O)COc2cccc(NC(=O)c3ccco3)c2)c1
  -2.3	-2.1%	5%	-18	-0.3%	1.3	17
O=C(NCCN1CCC(n2c(=O)[nH]c3ccccc32)CC1)c1cccs1
  .	-1.1%	.	.	8.2%	0.0	.
Oc1ccc(-c2[nH]ncc2-c2cnn(-c3ccccc3)c2)c(O)c1
  0.2	-1.9%	2%	20	-0.5%	-0.4	-1
O=C(NC1CCCCCC1)C(=S)NCCc1ccccc1
  2.4	.	14µM*	-18	9.9%	0.6	-2
COc1ccc(O)c(/C=N\NC(=O)CCn2nnc3ccccc32)c1
  4.6	-27%	8%	-5	-1.4%	1.7	5
O=C(NCCC(=O)N1CCN(c2ccccn2)CC1)c1ccc([N+](=O)[O-])cc1
  .	-0.5%	.	-16	0.9%	2.4	.
COCCNc1nc2cc(-c3cccc(C(F)(F)F)c3)sc2c(=O)n1C
  .	-5.8%	.	.	0.7%	-0.4	.
O=C(c1cccc(NS(=O)(=O)c2ccc(F)c(F)c2)c1)N1CCN(C(c2ccccc2)c2ccccc2)CC1
  6.4	32µM*	-3%	13	5.8%	3.6	?
COc1cc2nc(NC(=O)c3ccc(S(=O)(=O)N4CCOCC4)cc3)sc2cc1OC
  .	-1.0%	.	9	-2.3%	0.5	.
O=C(CN1CCN(c2ccc(F)cc2)CC1)Nc1ccc(-n2cnnn2)cc1
  -0.8	-1.6%	8%	-20	5.6%[38.3 µM]	0.6	14
C/C(=N\O)C1/C(=N/O)CC2C1C2(C)C (configuration not stated)
  -0.1	-0.9%	?	-12	-0.3%[38.3 µM]	-0.1	16
CCCOc1ccc(NC(N)=O)cc1OCCC
  5.3	2.3%	17%	7	1.5%	-0.5	26
CC(=O)N(Cc1ccccc1)C1CC(=O)N(Cc2ccccc2)C1=O (configuration not stated)
  .	.	.	-2	-1.9%	-0.2	.
O=C(NCc1nnc(SCC(=O)N2CCCc3ccccc32)o1)c1c(F)cccc1Cl
  -1.8	0.5%	10%	-16	-0.1%	2.1	1
CC(C)c1nccn1S(=O)(=O)c1cc(Cl)ccc1Cl
  -0.7	-4.5%	-3%	-10	1.9%	-0.4	6
CCOC(=O)CCC(NC(=O)CCCCCCCCC(=O)NC(CCC(=O)OCC)C(=O)OCC)C(=O)OCC (configuration not stated)
  -3.2	1.0%	-5%	-7	-1.6%	1.9	4
O=C(NCc1nnc2c3ccccc3c(-c3ccccc3)nn12)c1ccccc1Cl
  2.3	.	-19%	-20	1.8%	0.2	18
Cc1[nH][nH]c(=O)c1C=NCc1cccs1
  -1.1	0.3%	12%	-8	2.1%	-0.4	1
CCN1CCc2c(C#N)c(N3CCOCC3)nc(N3CCOCC3)c2C1
  -6.6	?	20%	8	-0.7%	1.2	-5
CCOc1ccc2[nH]c3ncccc3c(=O)c2c1
  ?	.	8%	-4	-1.3%	5.4	28
Cc1ccnc(NC(=O)CCC(=O)N(CC(=O)NCC2CCCO2)Cc2ccc(F)cc2)c1 (configuration not stated)
  -1.0	-0.1%	21%	-12	0.8%	0.1	27
CCC1(c2ccc(Cl)cc2)NC(=S)N(c2ccc(C)cc2)N1 (configuration not stated)
  -0.6	-4.7%	?	-8	10%	1.2	3
O=C(NCCCN1CCOCC1)c1onc(CSc2ccc(F)c(F)c2)c1C(=O)NCCCN1CCOCC1
  .	-0.9%	.	-7	0.9%	-0.5	.
CCn1cc(S(=O)(=O)CC(=O)NC2CCCCC2)c2ccccc21
  -0.5	0.2%	7%	-8	-3.5%	-0.1	8
O=C(CCC(=O)NNC(=O)Nc1cccc(Cl)c1)NCc1ccccc1
  1.2	1.5%	8%	-5	-0.4%	0.2	6
c1cncc(-c2nn3c(Cn4nnc5ccccc54)nnc3s2)c1
  -0.7	-2.6%	32µM*	-2	-0.5%[38.3 µM]	-0.2	9
CC1(C)Cc2c(c(-c3ccco3)nc3sc4c(NCCN5CCOCC5)ncnc4c23)CO1
  3.9	.	-4%	10	3.5%	-0.1	-1
O=C(COC(=O)/C=C/c1ccc(OC(F)F)cc1)NC1CCCCCCC1
  .	-1.2%	.	-2	-0.9%	-0.7	0
CCCC(=O)N1CCCC1(C)C(=O)N(C)Cc1cccc2ccccc12 (configuration not stated)
  .	-0.5%	.	.	0.5%	-0.3	.
O=C(Nc1ccccc1)NC(Cc1ccc(O)cc1)C(=O)O (configuration not stated)
  3.8	.	23%	-5	0.1%	1.1	1
O=C(CN1C(=O)C2C3C=CC(C3)C2C1=O)Nc1nncs1 (configuration not stated)
  -1.1	.	-30%	-19	-2.4%	-0.1	-13
COc1cccc(/C=N\n2c(C)nnc2C)c1OC
  1.3	-13%	7%	-1	1.8%	-0.5	-1
COc1ccc(-c2noc(CSc3nc4ccccc4c(=O)n3-c3ccccc3)n2)cc1OC
  4.3	-4.5%	1%	3	0.8%	0.0	?
CC(=O)c1ccc(NS(=O)(=O)c2cc3c(cc2C)N(C(C)=O)CCO3)cc1
  -3.0	-16%	8%	-3	-1.2%	0.2	5
COCCNC(=O)c1cc2sc3ccccc3c2s1
  4.1	?	-6%	50	6.2%	-0.4	29
O=C(Nc1ccc(OC(F)F)cc1)c1cc(S(=O)(=O)N2CCOCC2)ccc1N1CCCC1
  .	-5.3%	.	-11	-0.3%	2.9	.
CCCCC1Cc2[nH]c(=S)[nH]c(=O)c2C(c2ccc(F)cc2)O1 (configuration not stated)
  .	0.8%	.	-17	2.0%	-0.3	.
O=C(c1ccco1)N1CCCC(c2nc3c(nnn3Cc3ccc(Cl)cc3Cl)c(=O)[nH]2)C1 (configuration not stated)
  0.9	.	-19%	5	0.4%	0.1	3
COc1ccc(Br)cc1/C=N/NC(=O)c1cccc(S(=O)(=O)N2CCOCC2)c1
  5.8	.	18%	18	2.5%	0.4	-5
O=C(Nc1ccc2sccc2c1)c1ccc(Cl)s1
  1.4	4.2%	-12%	4	8.4%	1.7	0

Three entries from above, tab-delimited:
smiles	Menin-MLL FL inh	ClpP mod	Sfp inh	TRPML1 blocker	PINK1 modulator	TRPML1 ag	TRPV1 potentiator
CCC1(c2ccc(Cl)cc2)NC(=S)N(c2ccc(C)cc2)N1 (configuration not stated)	-0.6	-4.7%	?	-8	10%	1.2	3
c1cncc(-c2nn3c(Cn4nnc5ccccc54)nnc3s2)c1	-0.7	-2.6%	32µM*	-2	-0.5%[38.3 µM]	-0.2	9
CCCC(=O)N1CCCC1(C)C(=O)N(C)Cc1cccc2ccccc12 (configuration not stated)	.	-0.5%	.	.	0.5%	-0.3	.
